Screens: PubChem, National Center for Advancing Translational Sciences (NCATS)
nsP2pro inh = blocks chikungunya virus nsP2 protease peptide cleavage | 31,000 tested, 1.1% active | Q8JUX6 | AID 1964107 | Potency, µM (doses to about 24.9 µM), for the others: top-dose activity change, negative = inhibition, most hits filed as inhibitors | FRET peptide cleavage, nsP2pro, fluorescence 1 h; active means well fitted inhibition curve with a large enough effect; inconclusive means small, poorly fitted or top-dose-only effect; inactive means no such curve, though single readings can be large or run the other way; also: nearly all actives have a fitted effect of over 60% in size; a reference inhibitor and vehicle were the controls
Target sequence (Q8JUX6 whole entry, looked up): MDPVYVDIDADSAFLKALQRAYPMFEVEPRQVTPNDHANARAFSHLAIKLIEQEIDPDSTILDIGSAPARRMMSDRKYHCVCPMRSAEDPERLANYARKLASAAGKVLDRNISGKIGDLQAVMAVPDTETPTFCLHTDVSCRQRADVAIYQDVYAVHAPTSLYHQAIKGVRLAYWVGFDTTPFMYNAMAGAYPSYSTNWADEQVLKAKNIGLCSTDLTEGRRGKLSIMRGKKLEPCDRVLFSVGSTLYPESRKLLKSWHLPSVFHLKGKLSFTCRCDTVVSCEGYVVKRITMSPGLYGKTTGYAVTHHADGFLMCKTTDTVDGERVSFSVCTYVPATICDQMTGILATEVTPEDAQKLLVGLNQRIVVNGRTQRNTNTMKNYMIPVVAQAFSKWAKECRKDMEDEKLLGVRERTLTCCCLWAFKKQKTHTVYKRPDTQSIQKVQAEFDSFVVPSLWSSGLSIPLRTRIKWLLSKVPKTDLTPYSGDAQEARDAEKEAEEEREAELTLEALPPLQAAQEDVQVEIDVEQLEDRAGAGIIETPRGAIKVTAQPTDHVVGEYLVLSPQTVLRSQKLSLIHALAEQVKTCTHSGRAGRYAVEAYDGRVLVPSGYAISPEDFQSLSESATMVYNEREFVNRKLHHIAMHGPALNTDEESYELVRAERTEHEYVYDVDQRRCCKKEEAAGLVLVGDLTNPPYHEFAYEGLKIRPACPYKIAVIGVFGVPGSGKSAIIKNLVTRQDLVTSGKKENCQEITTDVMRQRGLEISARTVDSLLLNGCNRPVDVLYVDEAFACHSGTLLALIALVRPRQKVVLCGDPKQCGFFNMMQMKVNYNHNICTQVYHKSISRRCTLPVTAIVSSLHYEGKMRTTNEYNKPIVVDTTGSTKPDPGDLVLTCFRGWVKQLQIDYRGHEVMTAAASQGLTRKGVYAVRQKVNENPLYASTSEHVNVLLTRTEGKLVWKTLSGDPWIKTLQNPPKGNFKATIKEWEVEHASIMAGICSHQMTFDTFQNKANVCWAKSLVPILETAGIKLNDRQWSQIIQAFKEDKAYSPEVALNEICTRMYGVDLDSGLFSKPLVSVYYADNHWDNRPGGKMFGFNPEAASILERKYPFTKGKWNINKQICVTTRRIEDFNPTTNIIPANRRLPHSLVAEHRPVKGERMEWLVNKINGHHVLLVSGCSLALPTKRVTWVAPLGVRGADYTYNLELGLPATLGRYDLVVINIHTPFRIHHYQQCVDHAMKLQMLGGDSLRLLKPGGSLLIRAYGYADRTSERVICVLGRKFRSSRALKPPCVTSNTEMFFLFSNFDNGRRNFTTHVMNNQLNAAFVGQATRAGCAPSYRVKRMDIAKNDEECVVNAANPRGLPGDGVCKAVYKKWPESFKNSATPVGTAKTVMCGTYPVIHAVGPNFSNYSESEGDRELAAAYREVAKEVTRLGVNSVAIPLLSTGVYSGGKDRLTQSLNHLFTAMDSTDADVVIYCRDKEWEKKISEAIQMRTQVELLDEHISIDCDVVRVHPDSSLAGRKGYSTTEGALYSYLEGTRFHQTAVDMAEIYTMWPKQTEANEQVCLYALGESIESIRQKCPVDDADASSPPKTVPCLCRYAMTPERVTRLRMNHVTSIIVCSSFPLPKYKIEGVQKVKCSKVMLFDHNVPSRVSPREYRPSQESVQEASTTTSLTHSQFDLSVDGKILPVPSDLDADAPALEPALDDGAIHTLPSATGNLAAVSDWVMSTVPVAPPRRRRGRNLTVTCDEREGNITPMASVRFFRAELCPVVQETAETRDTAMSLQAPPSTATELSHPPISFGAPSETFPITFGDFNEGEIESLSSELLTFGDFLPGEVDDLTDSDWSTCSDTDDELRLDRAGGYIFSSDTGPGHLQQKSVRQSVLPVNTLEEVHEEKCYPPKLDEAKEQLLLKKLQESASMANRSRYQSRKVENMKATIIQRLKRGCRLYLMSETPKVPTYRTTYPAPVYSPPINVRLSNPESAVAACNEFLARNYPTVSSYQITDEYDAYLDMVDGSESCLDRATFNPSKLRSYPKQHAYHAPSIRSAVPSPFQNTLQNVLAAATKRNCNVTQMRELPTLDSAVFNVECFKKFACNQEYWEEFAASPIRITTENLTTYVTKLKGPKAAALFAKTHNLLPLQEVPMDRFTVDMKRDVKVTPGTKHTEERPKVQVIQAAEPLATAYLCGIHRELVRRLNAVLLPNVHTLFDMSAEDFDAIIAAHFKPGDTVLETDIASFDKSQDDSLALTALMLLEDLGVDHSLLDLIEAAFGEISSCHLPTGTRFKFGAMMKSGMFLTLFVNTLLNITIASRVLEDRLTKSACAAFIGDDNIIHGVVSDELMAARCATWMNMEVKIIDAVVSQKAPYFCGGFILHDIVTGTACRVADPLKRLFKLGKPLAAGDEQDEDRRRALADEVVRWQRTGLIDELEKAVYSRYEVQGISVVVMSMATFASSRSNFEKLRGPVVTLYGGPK
* hit, by the source's call; i = inactive; ? = inconclusive; & = joins results of further samples; [ ] = remark or other dose. % is scaled to controls: 0 for no effect and ±100 for the full control effect; potency is read from the fitted curve at half-maximal effect. These rows are one share of the data; count on the stated rates, not on these rows.

SMILES | nsP2pro inh
O=C(OC/C=C/CSc1nnc(-c2cccc3ccccc23)o1)c1ccc(F)cc1 | -5%
CCOC(=O)c1ccnc2cc(C(OCCN3CCCCC3)c3ccccc3Cl)sc12 (stereo not drawn) | 3%
CCCCN(CCCC)C(=O)c1cc2c(=O)n3cccc(C)c3nc2s1 | -27%
N#Cc1cc(NC(=O)Nc2cccc(-c3ccncc3)n2)ccc1Cl | -8%
CSCC[C@H](NC(=O)[C@H](Cc1ccc(OS(=O)(=O)O)cc1)NC(=O)[C@@H](N)CC(=O)O)C(=O)NCC(=O)N[C@@H](Cc1c[nH]c2ccccc12)C(=O)N[C@@H](CCSC)C(=O)N[C@@H](CC(=O)O)C(=O)N[C@@H](Cc1ccccc1)C(N)=O | -4%
Cc1nc2ccccc2n1CCNC(=O)CC[C@H]1NC(=O)c2ccccc2NC1=O | 0%
O=C([C@@H]1C[C@H](F)CN1C(=O)c1ccc(Cl)cc1)N1CCCCC1 | 0%
CN(Cc1ccc2c(c1)OCO2)C(=O)C1(C)CCOCC1 | 3%[39.2 µM]
COc1ccc(S(=O)(=O)N2CCC(c3nc4ccccc4s3)CC2)cc1OC | -12%
C#CCNCc1cc2cc(OCc3ccccc3)ccc2[nH]1 | -2%
COc1c(O)cc2oc(-c3ccccc3)cc(=O)c2c1O | -8%
O=C(NCc1ccccc1)c1csc(Nc2ccncn2)n1 | 24%
Cc1nn(CCO)cc1CN1CCN(C(=O)c2cc[nH]c2)CC(O)C1 (stereo not drawn) | ?
COc1ccc(/C=C/C(=O)O[C@@H]2[C@@H](OC(C)=O)[C@@H](OC(C)=O)[C@H](O[C@H]3[C@@H]4C=CO[C@@H](O[C@@H]5O[C@H](CO)[C@@H](O)[C@H](O)[C@H]5O)[C@@H]4[C@@]4(CO)O[C@@H]34)O[C@H]2C)cc1 | -8%[10 µM]
CCCCS(=O)(=O)c1oc(-c2cccs2)nc1S(=O)(=O)c1ccc(F)cc1 | ?
CC1(C)CC(=O)N(CCCCN2CCN(c3ncccn3)CC2)C(=O)C1 | -6%
C[C@@H]1O[C@@H](O[C@@H]2[C@@H](O[C@@H]3O[C@@H](C)[C@H](O[C@@H]4OC[C@H](O)[C@H](O[C@@H]5OC[C@@H](O)[C@H](O)[C@H]5O)[C@H]4O)[C@@H](O[C@@H]4OC[C@](O)(CO)[C@H]4O)[C@H]3O)[C@H](OC(=O)[C@]34CCC(C)(C)C[C@H]3C3=CCC5[C@@]6(C)C[C@H](O)[C@H](O[C@@H]7O[C@H](CO[C@@H]8OC[C@H](O)[C@H](O)[C@H]8O)[C@@H](O)[C@H](O)[C@H]7O)C(C)(C)C6CC[C@@]5(C)[C@]3(C)C[C@H]4O)OC[C@H]2O)[C@H](O)[C@H](O)[C@H]1O (stereo partly drawn) | 2%[5.1 µM]
O=c1ccc2ccccc2o1 | -8%[39.2 µM]
CCN1c2cc(C(=O)NCc3ccncc3)ccc2C(=O)N2CCCCC21 (stereo not drawn) | i
O=C(Nc1ncc(Cc2ccc(C(F)(F)F)cc2)s1)c1ccc(-c2cccc([N+](=O)[O-])c2)o1 | -17%

In the list so far, 6 have a halogen.
SMILES | nsP2pro inh
O=C(OC/C=C/CSc1nnc(-c2cccc3ccccc23)o1)c1ccc(F)cc1 | -5%
CCOC(=O)c1ccnc2cc(C(OCCN3CCCCC3)c3ccccc3Cl)sc12 (stereo not drawn) | 3%
N#Cc1cc(NC(=O)Nc2cccc(-c3ccncc3)n2)ccc1Cl | -8%
O=C([C@@H]1C[C@H](F)CN1C(=O)c1ccc(Cl)cc1)N1CCCCC1 | 0%
CCCCS(=O)(=O)c1oc(-c2cccs2)nc1S(=O)(=O)c1ccc(F)cc1 | ?
O=C(Nc1ncc(Cc2ccc(C(F)(F)F)cc2)s1)c1ccc(-c2cccc([N+](=O)[O-])c2)o1 | -17%

Going on with the list:
SMILES | nsP2pro inh
CNc1nc2c(s1)C(c1ccccc1F)CC(=O)N2 (stereo not drawn) | 1.6µM*
CN(C)C(=O)N1CCCn2nc(CNC(=O)C(=O)c3ccco3)cc2C1 | 4%
C/C=C(\C)C(=O)O[C@H]1[C@@H](O[C@]2(COC(=O)CC(C)C)O[C@H](COC(=O)C(C)C)[C@@H](OC(C)=O)[C@@H]2O)O[C@H](COC(C)=O)[C@@H](O)[C@@H]1O | 15%[10 µM]
COc1ccc2[nH]c(S(=O)Cc3ncc(C)c(OC)c3C)nc2n1 (stereo not drawn) | ?
COc1ccc2[nH]cc(CCN=C(NC(=O)c3cccc(Cl)c3)Nc3nc(C)cc(C)n3)c2c1 | -9%
O=C(NCc1ccccc1)c1ccc(-c2ccc(N3CCSCC3)nc2)cc1 | i
CC(C)C[C@H](NC(=O)[C@H](CCc1ccccc1)NC(=O)CN1CCOCC1)C(=O)N[C@@H](Cc1ccccc1)C(=O)N[C@@H](CC(C)C)C(=O)[C@@]1(C)CO1 | 49%&15%&26%[activator]
C[C@@H]1C[C@H](C)CN(CCC(=O)Nc2ccc(Br)cc2)C1 | -6%
Cc1nc(-c2c3n(c(=O)n(CC(=O)NCc4cccs4)c2=O)CCCCC3)no1 | i
O=C(NC1CCCN(c2cc(N3CCCC3)ncn2)C1)c1ccco1 (stereo not drawn) | -2%
Cc1csc(CNc2ncnc3ccc(-c4ccccc4Cl)cc23)c1 | -1%
Cc1ccc2c(c1)-c1nc(-c3ccc(Cl)cc3)cc(-c3coc4ccccc4c3=O)c1CO2 | -4%
O=C(Nc1cc(F)ccc1F)c1ccc2c(c1)nnn2C1CCCC1 | -20%
OCc1ccccc1O | -9%
CCS(=O)(=O)Nc1ccc(C)n(CC(=O)N(C)Cc2ccccc2)c1=O | ?
C[C@@H]1CN(C(=O)NCC2CCCCC2)CC[C@@]1(O)C1CCOCC1 | i
COCCN1C(=O)c2cccn2CC1CNS(=O)(=O)Cc1ccccc1 (stereo not drawn) | 2%
COc1nccc(-c2nc(Nc3ccc(F)c(F)c3)c3ccccc3n2)c1OC | i
Cc1oc2c(c1C(=O)NCc1cccc(Br)c1)C1=NCCN1C=N2 | -27%
COc1ccc(OC)c(CNC(=O)C2(CCO)CC23CCOCC3)c1 (stereo not drawn) | -14%
Cc1c(Cl)cccc1NS(=O)(=O)c1cc2c(cc1Cl)CCC(=O)N2 | 3%
CCc1c(Cl)c(O)c(Cl)c(O)c1C(=O)O[C@H]1[C@H](O)[C@H](OC)[C@H](OC/C2=C\C=C\C[C@H](O)/C(C)=C\[C@H](CC)[C@@H](O[C@@H]3OC(C)(C)[C@@H](OC(=O)C(C)C)[C@H](O)[C@@H]3O)/C(C)=C/C(C)=C/C[C@@H]([C@@H](C)O)OC2=O)O[C@@H]1C | 30%[activator]
CC(C)c1noc(-c2cn(C3CCN(C(=O)c4ccc(Cl)s4)C3)nn2)n1 (stereo not drawn) | i
C[C@H]1C(=O)N2c3ccccc3[C@@]3(O)C[C@@H]4C(=O)N[C@](C)(c5nc6ccccc6c(=O)n54)N1[C@@H]23 | 27%[10 µM]
CC(=O)OC[C@]12C[C@H](OC(=O)CC(C)C)C(C)=C[C@H]1O[C@@H]1[C@H](O)[C@@H](OC(C)=O)[C@@]2(C)[C@@]12CO2 | -14%[10 µM]
CC(C)n1cc(CN2CCC(CO)(Cc3ccccc3Cl)CC2)cn1 | i
CC(=O)OC1C(O)C(C)(O)C(/C=C/C(=O)O)C2(C)CCCC(C)(C)C12 (stereo not drawn) | -12%
CN1CCCC1c1nc(C2CN(S(=O)(=O)Cc3ccccc3F)C2)no1 (stereo not drawn) | -3%
Clc1ncoc1-c1c[nH]c2ccccc12 | ?
Cc1cc(Nc2ccccc2Cl)n2nc(-c3ccco3)nc2n1 | ?
O=C(O)c1ccc(O)c2ncc(N3CCCCC3)cc12 | i
Nc1ccc(S(=O)(=O)NC(=O)c2ccccc2)cc1 | -7%
COc1cccc(CN2CCCC3(CCN(C(=O)c4cnc(C)cn4)C3)C2)c1 (stereo not drawn) | -2%
COc1cccc(CN2Cc3cc(NC(=O)c4ccc(F)cc4F)ccc3OC(C)C2=O)c1 (stereo not drawn) | -15%
O=C(Cn1nc(-c2ccncc2)ccc1=O)NCCc1ccccc1 | i
O=C(C[C@@H]1C(C(=O)O)=CO[C@@H](O[C@@H]2O[C@H](CO)[C@@H](O)[C@H](O)[C@H]2O)/C1=C\CO)OCCc1ccc(O)c(O)c1 | ?
C[C@]12C=CC(=O)C=C1CC[C@@H]1[C@@H]2[C@@H](O)C[C@@]2(C)[C@H]1CC[C@]2(O)C(=O)CO | -3%
COc1ccc(C)cc1NC(=O)CCC[C@@H]1[C@H]2CCCN3CCC[C@@H](CN1C)[C@@H]23 | ?
COCCN1CN=C(NS(=O)(=O)c2ccc(C)cc2)NC1 | -13%
CN(c1ccccc1)c1cc(=O)c2ccnc(NCC3CCOCC3)c2o1 | -7%[39.2 µM]
COc1cccc(C2c3c(ncn(-c4ccc(C)cc4)c3=N)Oc3ccc4ccccc4c32)c1 (stereo not drawn) | 1%
Cc1cc(C)n(CC(=O)N2CCC(c3nc(CCOCC4CCCC4)no3)C2)n1 (stereo not drawn) | i
COc1ccc(C2=Nn3c(nnc3-c3ccc(OC)cc3OC)SC2)c(OC)c1 | -3%
CCOc1ccc(OCC)c(NC(=O)c2cnc(SC)nc2-c2ccccc2)c1 | -8%
COc1ccc(Nc2ncc(C(=O)Nc3cccc(Cl)c3)c3ccccc23)cc1 | -6%
Cc1ccc(NC(=O)c2oc3ccc(S(=O)(=O)N4CCCCC4)cc3c2C)cc1C | -13%
Cn1cc(C(=O)N2C[C@@H](C(=O)O)[C@H](c3cccc(F)c3)C2)c(=O)[nH]c1=O | 1%
CN(CCc1cnc[nH]1)c1ncnc2ccc(-c3ccc4c(c3)OCO4)cc12 | i
O=C(Cc1c(F)cccc1F)Nc1cc(OCc2ccc(Cl)cc2)ccn1 | 14%
CCC/C=C/C(=O)O[C@H]1CC(C)(C)CC2[C@]13[C@H](O)O[C@@]21CCC2[C@@]4(C)CC[C@H](O[C@@H]5O[C@H](C(=O)O)[C@@H](O)[C@H](O[C@@H]6O[C@H](CO)[C@H](O)[C@H](O)[C@H]6O[C@@H]6O[C@@H](C)[C@H](O)[C@@H](O)[C@H]6O[C@@H]6OC[C@](O)(CO)[C@H]6O)[C@H]5O[C@@H]5O[C@H](CO)[C@H](O)[C@H](O)[C@H]5O)C(C)(C)C4CC[C@@]2(C)[C@]1(C)C[C@H]3OC(C)=O (stereo partly drawn) | -20%[5.1 µM]

Continuation:
SMILES | nsP2pro inh
C=C(C(=O)OC)C1C(O)CC2(C)C(O)CCC(=O)C2C1O (stereo not drawn) | -4%
O=C1N[C@@H](Cc2cccs2)C(=O)N2CC[C@H](NS(=O)(=O)c3cccs3)C[C@@H]12 | i
CCCCN(C)C(=O)Cn1nc(-c2cccc(C)c2)ccc1=O | 5%
CCOC(=O)c1ccc(-c2ccc(/C=C(\C#N)C(=O)Nc3c(C)cccc3Cl)o2)cc1 | -19%
CC(C)[C@](O)(c1ccc2cc(OC(F)F)c(OC(F)F)cc2c1)c1cn[nH]n1 | 467%[activator]
CC(=O)c1ccc(NC(=O)N2C[C@@H]3C[C@H](C2)c2ccc(NC(=O)c4ccc(F)cc4)c(=O)n2C3)cc1 | -1%
CC1=C[C@@H](CNS(=O)(=O)c2cccc(C#N)c2)[C@H](C(C)C)C[C@H]1CC(=O)Nc1ccccn1 | -23%
COc1ccc(NC(=O)N2C[C@@H]3C[C@H](C2)c2c(NC(=O)C4CCCCC4)ccc(=O)n2C3)cc1 | i
COCCn1c(CN(C)Cc2sccc2C)cnc1S(=O)(=O)CC1CCCCC1 | ?
Nc1[nH]c(=O)ncc1F | -4%

The last 2 compounds of the part before are carried over, then new ones follow:
SMILES | nsP2pro inh
COCCn1c(CN(C)Cc2sccc2C)cnc1S(=O)(=O)CC1CCCCC1 | ?
Nc1[nH]c(=O)ncc1F | -4%
CCOC(=O)c1ccccc1Nc1nc2ccc(C)cc2n2nnnc12 | -9%
NC(=O)c1cnccn1 | -7%
Cc1nc([C@@H]2CN(Cc3ccc(C(F)(F)F)cc3)C[C@H]2C(N)=O)n[nH]1 | 1%
CN(C)Cc1nnc(C2CCN(C(=O)CCNS(C)(=O)=O)CC2)n1C | -5%
CCCn1c(-c2ccc(F)cc2)nc2c(N3CCC(N(C)C)C3)nc(C)nc21 (stereo not drawn) | i
Cc1noc(C)c1S(=O)(=O)NCCc1noc(-c2ccccc2)n1 | i
COc1ccc(NS(=O)(=O)c2ccccc2C(=O)O)cc1 | -4%
Cc1cn([C@@H]2O[C@H](CO)[C@@H](O)[C@H]2O)c(=O)nc1N | -8%
Cc1ccccc1-c1nc(NCc2cccs2)c2ccccc2n1 | i
Cc1cccc(N2CCN(C(=O)c3ccc4c(c3)N(Cc3cccc(Cl)c3)C(=O)c3ccccc3S4=O)CC2C)c1 (stereo not drawn) | -10%

Single values from above.
Cc1cccc(N2CCN(C(=O)c3ccc4c(c3)N(Cc3cccc(Cl)c3)C(=O)c3ccccc3S4=O)CC2C)c1 (stereo not drawn) | nsP2pro inh = -10%
Cc1cn([C@@H]2O[C@H](CO)[C@@H](O)[C@H]2O)c(=O)nc1N | nsP2pro inh = -8%

Next records follow:
SMILES | nsP2pro inh
O=C(NCc1nnc2n1CCCC2)[C@H]1CNC[C@H](C(=O)N2CCOCC2)C1 | -1%
c1cncc(-c2ccc(CNc3nc(-n4ccnc4)nc4ccccc34)cc2)c1 | i
COc1ccc(-c2ccc(NC(=O)C3CCCC3)cc2)nn1 | i
COc1ccccc1Oc1ncccc1CNCc1c(F)cccc1Cl | i
CN(CC(=O)Nc1ccc(N2CCOCC2)cc1)Cc1cccc2ccccc12 | -3%
CN(C)CCOC(C)(c1ccccc1)c1ccc(Cl)cc1 (stereo not drawn) | 32%
